# Screening data (PubChem)
# TDP1 cell CPT: qHTS for Inhibitors of human tyrosyl-DNA phosphodiesterase 1 (TDP1): qHTS in cells in presence of CPT | AID 686979, 2013 | Potency, µM (highest dose often 46.2 µM), without a hit: at the top dose activity change, negative = growth inhibition, hits mostly inhibitors | actives 12% (n = 420,000) | chicken DT40 Tdp1-/-;hTDP1 cells + 20 nM CPT, ATP luminescence, 48 h; further: nearly all actives have a fitted effect of over 55% in size
#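 Cell growth measured by CellTiter-Glo luminescence after a minimum 48 h, 37 C compound exposure with 20 nM CPT in Tdp1-knockout DT40 cells stably expressing hTDP1, seeded 400/well; qHTS titration format.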
# KAT2A inh: qHTS Assay for Inhibitors of GCN5L2. Histone acetyltransferase KAT2A (Homo sapiens), Q92830. GCN5L2 HAT assay, ThioGlo1 CoA-SH fluorescence. Potency, µM (titrated, usually from 58.9 µM), without a hit: at the top dose activity change, negative = inhibition, hits mostly inhibitors. actives 0.21% (n = 390,000)
# Target sequence (Q92830 whole entry, looked up): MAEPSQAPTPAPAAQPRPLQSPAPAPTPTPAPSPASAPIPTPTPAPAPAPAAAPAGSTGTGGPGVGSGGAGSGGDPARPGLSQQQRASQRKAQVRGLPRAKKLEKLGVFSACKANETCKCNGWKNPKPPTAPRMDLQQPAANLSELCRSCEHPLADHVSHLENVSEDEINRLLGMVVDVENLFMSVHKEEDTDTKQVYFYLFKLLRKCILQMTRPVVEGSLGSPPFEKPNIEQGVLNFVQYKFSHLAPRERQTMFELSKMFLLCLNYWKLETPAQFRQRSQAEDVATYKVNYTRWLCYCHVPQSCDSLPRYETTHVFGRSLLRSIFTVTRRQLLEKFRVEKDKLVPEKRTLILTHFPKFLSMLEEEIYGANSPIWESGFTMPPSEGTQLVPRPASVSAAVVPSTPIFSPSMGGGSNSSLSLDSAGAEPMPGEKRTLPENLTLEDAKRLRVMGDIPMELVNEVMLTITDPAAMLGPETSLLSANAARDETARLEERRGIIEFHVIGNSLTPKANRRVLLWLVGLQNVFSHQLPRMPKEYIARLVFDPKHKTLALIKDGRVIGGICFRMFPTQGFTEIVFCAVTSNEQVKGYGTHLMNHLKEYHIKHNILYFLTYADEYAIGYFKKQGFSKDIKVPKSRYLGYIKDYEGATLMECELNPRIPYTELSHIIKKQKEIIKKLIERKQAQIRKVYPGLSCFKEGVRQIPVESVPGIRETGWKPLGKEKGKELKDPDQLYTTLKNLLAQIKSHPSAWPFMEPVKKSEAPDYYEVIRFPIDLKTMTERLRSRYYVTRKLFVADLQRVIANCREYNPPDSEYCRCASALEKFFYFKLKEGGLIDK
#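 Titration-based screen in which CoA formation is detected via maleimide probe ThioGlo1 (50uM) turning fluorescent on thiol reaction; substrates H3(1-25) 75uM and acetyl-CoA 70uM, GCN5L2 20nM, 20 min incubation at room temperature.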
# * = called active by the depositor; u = inconclusive; x = not tested or not shown; & = joins results of further samples; [ ] = another dose, or the depositor's remark. The call rests on the fitted dose curve; in most records, active means well fitted curve in the direction sought with a large enough effect; inconclusive means small, poorly fitted or top-dose-only effect, or another doubt; inactive means no such curve, though single readings can be large; an effect the other way counts as inactive or inconclusive. On the % scale 0 is the no-effect control and ±100 the full control effect; potency means the concentration at half of the fitted maximal effect. Some of the compounds tested, and most or all hits are left out here.
# Order of results: TDP1 cell CPT	KAT2A inh
OCCCN=c1cc(-c2ccccc2)oc2ccc(Cl)cc12
  u	1%
COc1cc(-c2noc(CCCC(=O)NCc3ccccc3)n2)cc(OC)c1OC
  -29%	-6%
Nn1cnc2c(c1=O)C1(CCCCC1)Cc1ccccc1-2
  9.2µM*	-3%
CCn1cc(/C=N/O)c(C)n1
  7%	-4%
[2H]C(CCOS(N)(=O)=O)c1ccccc1 (stereo unspecified)
  -12%	-15%
Cc1ccc(Cl)c(NC(=O)CSc2cccc[n+]2[O-])c1Cl
  -2%	0%
CSCCC(NC(=O)c1ccccc1Cl)C(=O)N(C)CC(=O)Nc1ccc(N2CCOCC2)cc1 (stereo unspecified)
  5%	-5%
COC(=O)c1cc(C(=O)Nc2cc(C)on2)cc([N+](=O)[O-])c1
  -1%	-9%
CCCCOCCCNC(=O)c1ccc(OCC)cc1
  -28%	-2%
CC(C)Cc1nc(SCc2cccnc2)c2c(=O)n(C)c(=O)n(C)c2n1
  18µM*	-2%
COc1cccc(-c2onc3ccc(C4(C)OCCO4)cc23)c1
  u	-9%
Cc1nnnn1-c1ccc(CC(=O)O)cc1
  -11%	-1%
CCC(=O)Nc1ccc(S(=O)(=O)NCc2ccco2)cc1
  -1%	0%
COC(=O)c1cc(S(=O)(=O)NCc2ccc(F)cc2)cn1C
  -21%	-13%
Cn1c(COc2ccc(Br)cc2)nnc1SC1CCc2ccccc2C1=O (stereo unspecified)
  u	-5%
Cc1ccnc(NC(=O)c2c(C)oc3ncn(CC(C)C)c(=O)c23)c1
  u	26%
Cc1cccc(C(=O)N2CCCC(c3nc(-c4ccc(F)cc4)no3)C2)c1 (stereo unspecified)
  u	0%
COC(=O)c1ccc(S(=O)(=O)N(Cc2ccccc2)Cc2ccccc2)n1C
  u	-28%
CC1CCC/C(=C\Nc2ccc3c(c2)OCO3)C1=O (stereo unspecified)
  -22%	-5%
CCCCn1c(N)c(N(CCOC)C(=O)c2cc(-c3ccc(F)cc3)nc3ccccc23)c(=O)[nH]c1=O
  u	-10%
O=C(CSc1ccccc1)NNC(=O)c1ccccc1O
  u	u
COc1cc(/C=N/Nc2nc(C)cc(=O)[nH]2)ccc1O
  -1%	1%
CCCCN(c1ccccc1)S(=O)(=O)N(C)C
  -2%	-5%
COc1ccc(NC(=O)NC[C@@H]2CC[C@@H](Cc3ccc(-c4ccccc4)cc3)O2)cc1
  u	0%
CN1CCC(CN)(N2CCN(c3ccccc3)CC2)CC1
  u	-3%
C/C(=N/NC(=O)c1nnn(-c2nonc2N)c1COc1ccccc1)c1ccc(O)cc1
  -26%	-4%
Cc1nnc(N2C(=O)C(O)=C(C(=O)c3ccco3)C2c2cccc([N+](=O)[O-])c2)s1 (stereo unspecified)
  -2%	-8%
CCN(CC(=O)Nc1c(F)cccc1F)C(=O)CSCC(=O)Nc1cc(C)on1
  -19%	-1%
CC(NCc1cccn1C)c1ccccc1 (stereo unspecified)
  -3%	-3%
C=CCNC(=O)C(=O)Nc1cc2c3c(c1)CCC(=O)N3CCC2
  0%	-17%
Cc1cc(C)c(NC(=O)C2CCCN(S(=O)(=O)c3c(C)noc3/C=C/N(C)C)C2)c(C)c1 (stereo unspecified)
  -7%	-4%
CCOC(=O)N1CCN(C(c2ccc(Cl)cc2)c2sc3nc(C)nn3c2O)CC1 (stereo unspecified)
  -20%	u
O=C(CCc1nc2ccccc2c(=O)[nH]1)Nc1nc(-c2cccs2)cs1
  u	-3%
O=C(CN1CCCCC1)N/N=C/c1ccccc1Br
  -8%	0%
O=C(OCc1nnc(-c2ccc([N+](=O)[O-])cc2)o1)c1ccc(F)c(S(=O)(=O)N2CCOCC2)c1
  u	-26%
COc1cccc(NC(=O)COc2c(F)c(F)c(C(F)(F)F)c(F)c2F)c1
  -1%	-5%
Cc1ccc(SCCNC(=O)c2ccccc2C)cc1
  -13%	-9%
COc1ccc(NC2=C(C(C)=O)C(c3ccc(OC)cc3)C(C(C)=O)C(C)(O)C2)cc1 (stereo unspecified)
  -13%	-6%
COc1ccc(Cl)cc1C(=O)O/N=C(\N)c1ccncc1
  3%	-8%
COc1ccc(CCNC(=O)C(C(=O)c2ccccc2)n2cc(Cl)ccc2=O)cc1OC (stereo unspecified)
  -12%	-5%
COc1ccc(S(=O)(=O)NNC(=O)Nc2ccccc2OC)c(OC)c1
  -7%	-2%
O=C1c2ccccc2C(O)(c2ncc[nH]2)N1CCc1ccccc1 (stereo unspecified)
  u	0%
COc1cccc(C(=O)OC2CCN(C)CC2)c1
  -3%	-12%
O=C(NNC(=O)c1nn(-c2ccc(F)cc2)ccc1=O)c1ccc(Cl)cc1
  4%	-9%
CCc1ccc(N(C(=O)c2csnn2)C(C(=O)NC2CCCCC2)c2ccncc2)cc1 (stereo unspecified)
  5%	-6%

# A draw from above in order of SMILES length, highest first.
# Order of results: TDP1 cell CPT	KAT2A inh
O=C(CCc1nc2ccccc2c(=O)[nH]1)Nc1nc(-c2cccs2)cs1
  u	-3%
COc1ccc(S(=O)(=O)NNC(=O)Nc2ccccc2OC)c(OC)c1
  -7%	-2%
O=C1c2ccccc2C(O)(c2ncc[nH]2)N1CCc1ccccc1 (stereo unspecified)
  u	0%
O=C(CN1CCCCC1)N/N=C/c1ccccc1Br
  -8%	0%

# (continued)
# Order of results: TDP1 cell CPT	KAT2A inh
O=C(O)CS(=O)CC(=O)NCc1cccc(C(F)(F)F)c1 (stereo unspecified)
  37%[activator]	-5%
O=[N+]([O-])c1cc(CSC2=NCCN2)ccc1O
  -38%	-17%
COc1cc(C(=O)NNC(=O)COc2ccc(Cl)cc2)ccc1OCC(=O)N1CCOCC1
  -29%	2%
NS(=O)(=O)c1ccc(NC(=O)COC(=O)c2cc([N+](=O)[O-])ccc2Cl)cc1
  3%	2%
Cc1cccnc1NC(=O)C1CC(=O)N(c2ccc3c(c2)OCCO3)C1 (stereo unspecified)
  2%	-2%
CCOCC(=O)Nc1nnc(C)s1
  u	-3%
Cc1ccc(-n2nc3c(=O)n(CCCC(=O)NCC(C)c4ccccc4)nc(C)c3c2C)cc1 (stereo unspecified)
  u	-12%
CCN1CCN(c2oc(-c3ccco3)nc2C#N)CC1
  9%	u
O=C(NCc1ccccc1)c1ccc(Cl)c(S(=O)(=O)N2CCCC2)c1
  -23%	-3%
COC(OC)c1ccnc(-c2ccc(OC(=O)c3ccc(F)cc3)cc2)n1
  0%	-5%
O=C(N/N=C/c1cccc2ccccc12)c1cc(C2CC2)[nH]n1
  u	-5%
CCOc1ccc(-n2c(SCC(=O)OC)nc3sc4c(c3c2=O)CCN(C)C4)cc1
  u	-3%
COc1ccc(NC(=O)c2ccc3c(=O)n(-c4ccc(OC)cc4OC)c(=S)[nH]c3c2)c(OC)c1
  23µM*	-7%
CCC(=O)Nc1nnc(SCCOC)s1
  -3%	-15%
O=C(c1ccc(OC2CCN(Cc3ccccn3)CC2)cc1)N1CCCC(O)C1 (stereo unspecified)
  -6%	0%

# Continuation:
SMILES | TDP1 cell CPT | KAT2A inh
CC(=O)Nc1c2c(nn1-c1ccccc1)CS(=O)C2 (stereo unspecified) | -5% | -5%
CCCCn1c2nc3ccccc3nc2c2c(=O)n(CCC(C)C)cnc21 | -15% | 0%
CCOC(=O)N1CCN(S(=O)(=O)c2ccc(C(=O)Nc3sc4c(c3C#N)CC(C)(C)NC4(C)C)cc2)CC1 | -6% | -18%
COc1ccc(N(CC2CO2)S(=O)(=O)c2ccccc2)cc1 (stereo unspecified) | u | -5%
CC1=CCC(C(=O)O)(C(=O)N/N=C/c2cccs2)C(c2ccc(F)cc2)C1 (stereo unspecified) | 10% | 0%
CCOc1cc(/C=C/c2cccc[n+]2C)ccc1O | 2% | -15%
Cc1noc(C)c1S(=O)(=O)N1CCC(C(=O)N2CCN(c3ccc(F)cc3)CC2)CC1 | u | 1%
O=C(O)C(Cc1ccccc1)n1c(=S)[nH]c2ccccc2c1=O (stereo unspecified) | -7% | -8%
CCC(=O)Nc1nc2ccc(NC(=O)COc3ccccc3)cc2s1 | 0% | -1%
COc1ccc(/C=N/NC(=O)c2ccccc2O)cc1COc1ccccn1 | -2% | -3%
CC(C)Cn1c(=O)c2ccccc2n2c(CCC(=O)NCc3ccc(Cl)cc3)nnc12 | u | 0%
COc1ccc(CNC(=O)COc2ccc(S(=O)(=O)N3CCCCC3)cc2Cl)cc1 | u | -7%
CC(C)OCCCNC(=S)NNC(=O)C(c1ccccc1)c1ccccc1 | u | -4%
CCn1nc(C(=O)Nc2ccc(S(=O)(=O)Nc3ncccn3)cc2)c2ccccc2c1=O | 2% | 0%
O=C(N/N=C/c1ccco1)c1ccc(NC(=O)c2ccccc2Cl)cc1 | -7% | -5%
COc1ccc(S(=O)(=O)N/N=C/c2ccc(OCCN3CCOCC3)c(OC)c2)cc1 | 10% | -1%
Cc1ccc(S(=O)(=O)N2CCCCC2)cc1NC(=O)CN1C(=O)c2ccccc2S1(=O)=O | -9% | -4%
Cc1ccc(S(=O)(=O)N2CCN(C(=O)COC(=O)COc3cccc4c3OC(C)(C)C4)CC2)cc1 | -10% | 3%
Cc1cccc(NC(=O)CSc2nnc(-c3ccco3)o2)c1 | 2% | -5%
CCNc1nc(C)nc2c1oc1ccccc12 | 0.58µM* | -4%
COc1ccc(/C=N/Nc2ccccc2)cc1Cn1nc(C)c([N+](=O)[O-])c1C | -4% | -3%
COc1cccc(CN(C)C(=O)c2cc(COc3ccc4ncccc4c3)on2)c1 | 3.3µM* | -23%
Cc1cc(=O)n2nc(N3CCC(C(=O)NCc4ccco4)CC3)sc2n1 | -13% | 0%
CN(Cc1ccccc1)S(=O)(=O)c1ccccc1Br | -22% | -3%
CCC(=O)c1ccc(OCC(=O)Nc2cc(S(=O)(=O)N3CCCCC3)ccc2N2CCN(CC)CC2)cc1 | u | 2%
CCOc1ccc(C)cc1S(=O)(=O)n1nc(C)cc1C | 0% | 16%
CC(NC(=O)C(=O)NN=C1CCCCCCCCCCC1)c1ccccc1 (stereo unspecified) | 2% | 4%
NC(=O)C1CCN(C(=O)COc2ccc(Nc3ccccc3)cc2)CC1 | 0% | 23%
CC(C)Cn1c(=O)[nH]c(=O)c2c(C(F)(F)F)cc(-c3ccccc3)nc21 | -28% | -2%
COc1ccc(S(=O)(=O)N2CCCC2)c(C)c1C | -13% | 1%
Cc1nnc(SCCN2CCOCC2)n1C | 7% | -1%
Cc1ccn2c(Nc3ccccc3C)c(-c3cccnc3)nc2c1 | 16µM* | -8%&-5%
Nc1cccc(-c2nc3ccccc3s2)c1 | 1% | -16%
CC(=O)c1ccc(N(C)C)c2c(N(C)C)cccc12 | 6% | u
Cc1nn(C(C)C(=O)O)c2ccccc12 (stereo unspecified) | 16% | -5%
COc1ccccc1OCc1ccc(C(=O)N2CCN(C(=O)c3ccco3)CC2)cc1 | -5% | -6%
NS(=O)(=O)c1cc(C(=O)OCCNC(=O)c2ccccc2)c(Cl)cc1Cl | 0% | x
O=C(NC(=S)Nc1ccc(S(=O)(=O)Nc2ccccc2)cc1)C1CC1 | 7% | 0%
COc1ccc(N2CC(NC(=O)c3ccco3)CC2=O)cc1OC (stereo unspecified) | -17% | -2%
COC(=O)Cc1c(C)c2ccc(OCC(=O)c3ccc(OC)c(OC)c3)cc2oc1=O | 1% | -4%
CCc1ccc(CN(C)C(=O)c2cc(COc3cc(C)c(Cl)c(C)c3)on2)nc1 | 16µM* | -28%
COc1cccc(-c2nc(S(=O)(=O)c3ccc(C)cc3)c(N3CCCCC3)o2)c1 | 21µM* | -6%
Cc1cc2cc(CCNC(=O)C(=O)c3c[nH]c4ccccc34)c(=O)[nH]c2cc1C | 15µM* | -9%
O=C(COC(=O)CSc1ccc(Cl)cc1)NCCc1ccccc1 | u | 1%
COc1cc(C2CC(=O)N(c3ccc(C)cc3)C(=O)C2)cc(OC)c1OC | 1.8µM* | -12%
Nc1nnc(SCCN2C(=O)c3ccccc3C2=O)s1 | -2% | u
COc1ccc(NC(=O)CN(C)C(=O)c2ccc(C)s2)cc1 | -11% | -8%
O=C1C2C3CC(C(Br)C3Br)C2C(=O)N1CC1CCCO1 (stereo unspecified) | 14% | -25%
Cc1ccc(C(c2nnnn2C(C)(C)C)N(Cc2ccco2)Cc2cccs2)cc1 (stereo unspecified) | u | -9%

# Shown field by field: 4 of the compounds above.
> Cc1nnc(SCCN2CCOCC2)n1C
  TDP1 cell CPT: 7%
  KAT2A inh: -1%
> CC(NC(=O)C(=O)NN=C1CCCCCCCCCCC1)c1ccccc1 (stereo unspecified)
  TDP1 cell CPT: 2%
  KAT2A inh: 4%
> NS(=O)(=O)c1cc(C(=O)OCCNC(=O)c2ccccc2)c(Cl)cc1Cl
  TDP1 cell CPT: 0%
  KAT2A inh: x
> O=C(COC(=O)CSc1ccc(Cl)cc1)NCCc1ccccc1
  TDP1 cell CPT: u
  KAT2A inh: 1%
